Insulin prom inh = TRM-6 insulin promoter activity inhibition | TRM-6 cells (human fetal islet line), insulin promoter-eGFP reporter, imaging; reporter expression induced with tamoxifen | inhibition, % at 2 µM | 130,000 compounds, 0.9% hits | AID 1273;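 active = inhibition above the mean plus 3 SD, with well images judged a real hit on visual review, cut at about 60% in these data, passing the limit was not always enough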
GALR2 ag = GALR2 (human) receptor agonism | O43603 | 140,000 compounds, 0.48% hits | AID 803 | GALR2-expressing cells, agonist activation read-out | activation, %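 (tested at 5 µM)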;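 active = above mean plus 3 SD of all compounds, about 5% in these data, not always enough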;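 note: 0% = vehicle buffer wells and 100% = reference agonist at full effect; tested in CHO reporter cells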
RGS16-Gao = regulators of human RGS16-Galphao interaction; O15492+P09471; bead-based flow cytometry RGS16-Galphao binding, fluorescence; actives lie on both sides; binding response (% of control), % at 10 µM; 220,000 compounds, 0.38% hits;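 active = below 25% or above 175%, edge rows of some plates excepted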;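 note: Galphao activated by GDP with aluminum fluoride before binding; 100% = wells without compound and 0% = beads without RGS; some results beyond the cut were filed as inactive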
HSV augment = increases HSV replication in cells; HSV replication augmentation in cells, fold increase; maximum fold increase; 220,000 compounds, 0.005% hits; AID 1956;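 active = peak rise of 1.5-fold or more in the series; tested in PC3 cells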;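 note: first round at 10 µM; read as green reporter fluorescence; hits show the peak of a series up to 25 µM; 1 = signal of infected wells without compound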
PKD1 inh = PKD1 (human) kinase inhibition; Q15139; 200,000 compounds, 0.056% hits; inhibition, %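 (about 10 µM by stock and volumes)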; PKD1 kinase fluorescence polarization assay;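 active = inhibition of 50% or more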;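 note: controls were vehicle for no effect and a reference inhibitor for full effect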
Target sequence (Q15139 whole entry, looked up): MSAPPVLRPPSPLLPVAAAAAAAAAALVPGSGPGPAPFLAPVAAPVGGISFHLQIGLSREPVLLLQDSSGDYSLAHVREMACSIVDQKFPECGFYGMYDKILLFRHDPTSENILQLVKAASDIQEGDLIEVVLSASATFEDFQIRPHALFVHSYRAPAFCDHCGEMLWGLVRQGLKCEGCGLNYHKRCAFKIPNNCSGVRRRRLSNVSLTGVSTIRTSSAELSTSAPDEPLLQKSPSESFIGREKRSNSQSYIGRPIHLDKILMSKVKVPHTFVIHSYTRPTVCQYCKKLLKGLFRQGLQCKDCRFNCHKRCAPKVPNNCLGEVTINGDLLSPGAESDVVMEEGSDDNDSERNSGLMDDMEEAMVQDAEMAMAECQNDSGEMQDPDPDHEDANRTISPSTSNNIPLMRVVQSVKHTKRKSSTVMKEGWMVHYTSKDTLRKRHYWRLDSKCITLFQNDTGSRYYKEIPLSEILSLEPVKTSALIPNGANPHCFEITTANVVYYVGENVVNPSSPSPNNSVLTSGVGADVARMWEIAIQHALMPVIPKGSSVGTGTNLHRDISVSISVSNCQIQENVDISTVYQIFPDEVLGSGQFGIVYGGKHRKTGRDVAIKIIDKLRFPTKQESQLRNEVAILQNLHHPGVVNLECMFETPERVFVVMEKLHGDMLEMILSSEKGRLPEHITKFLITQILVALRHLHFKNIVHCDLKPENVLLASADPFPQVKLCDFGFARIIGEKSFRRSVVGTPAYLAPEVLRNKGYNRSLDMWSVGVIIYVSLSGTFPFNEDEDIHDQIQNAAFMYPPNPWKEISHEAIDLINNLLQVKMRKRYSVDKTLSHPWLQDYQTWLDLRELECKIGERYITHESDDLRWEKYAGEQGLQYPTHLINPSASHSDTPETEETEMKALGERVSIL
Insulin prom inh cell count = recorded beside Insulin prom inh, whose call it bears; normalized cell count, %; measured here: cell count, toxicity; reference of the scale not given here;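 cells exposed to compound for 48 h; stained nuclei by imaging scaled within each plate; lower means fewer cells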
HSV augment primary fold = further read-out of HSV augment, marked with its call; fold increase; compound at 10 µM; measured here: primary screen fold increase 10 uM; tested in PC3 cells;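 GFP signal in the first replicate; 1 = infected wells without compound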
An asterisk follows results filed as active; i = inactive; x = not tested or not shown. Not a hit list; overall some 1.3% were active at least once.

item	molecule	Insulin prom inh	Insulin prom inh cell count	GALR2 ag	RGS16-Gao
1	CCc1cc(-c2n[nH]c(=S)n2Cc2ccccc2)cs1	29	133	-1.1	106
2	N/C(=N\c1nc2ccccc2o1)NC(=O)c1ccc(Cl)cc1	-54	106	0.7	109
3	COCCC1CCCCN1C(=O)c1cccc(OC2CCN(C3CCCC3)CC2)c1 (centres undefined)	x	x	x	106
4	Cc1ccc(N/C(N)=N/c2nc(C(F)(F)F)cc(C(F)(F)F)n2)cc1	-18	130	x	118
5	O=C(CN1CCCCC1)NC(=O)NC1CCCC1	22	103	x	103
6	CC(=O)Nc1ccc(C(=O)CSc2nnc(Cc3ccccc3)o2)cc1	57	164	-2.2	102
7	Cc1ccc(SCCC(=O)N/N=C/c2cccnc2)cc1	-15	101	x	104
8	Cc1cc(CCC(=O)O)c(C)cc1CCC(=O)O	x	x	-0.1	101
9	Cc1ccnc(NS(=O)(=O)c2ccc(NS(=O)(=O)c3cccs3)cc2)n1	6	97	-0.7	92
10	CCSC(=O)CCCCCCCCCCCO	-30	121	-0.7	90
11	Cc1ccccc1Cn1nc(C)c(NC(=O)C2c3ccccc3Oc3ccccc32)c1C	-4	68	-0.8	57
12	COc1ccc(/C=C\C(=O)c2c(O)ccc3c(C)cc(=O)oc23)cc1	27	97	0.1	99
13	CC(C)(C)NC(=O)c1ccc2c(c1)N(CC(=O)N1CCN(c3ccccc3F)CC1)C(=O)C(C)(C)O2	0	130	-2.0	97
14	CCOc1cc(S(=O)(=O)n2nc(C)cc2C)ccc1Br	x	x	x	96
15	COC(=O)c1[nH]c2cccc(OC)c2c1NC(=O)CN1CC2(C)CC1CC(C)(C)C2 (centres undefined)	18	137	-0.8	107

item	HSV augment	HSV augment primary fold	PKD1 inh
1	x	x	-2
2	i	0.96	-5
3	i	0.87	0
4	i	1	-3
5	i	0.88	-10
6	i	0.93	-3
7	i	0.93	2
8	i	0.97	8
9	i	1.1	-6
10	i	1.2	8
11	i	0.8	-7
12	i	0.8	-2
13	i	0.88	2
14	i	0.96	0
15	i	0.95	-11

Next compounds follow:
item	molecule	Insulin prom inh	Insulin prom inh cell count	GALR2 ag	RGS16-Gao
16	Cc1cccc(-c2n[nH]c(=S)n2Cc2ccccc2)c1	-67	167	0.8	11
17	CC(=O)c1ccc(NC(=O)CCC(=O)OCC(F)(F)C(F)F)cc1	x	x	0.4	108
18	COc1ccc(CCNC(=O)CN(CCc2ccccc2)S(C)(=O)=O)cc1OC	-22	128	x	103
19	CC(=O)N=c1c(C#N)cc2c(=O)n3ccccc3nc2n1CCCOC(C)C	x	x	x	103
20	O=c1[nH]c(-c2cccnc2)nc2sc(-c3ccccc3)cc12	x	x	x	93
21	COC(=O)c1c(NC(=O)CSc2nc3ccccc3c(=O)n2-c2ccccc2)sc(C)c1C	32	96	-1.1	100
22	NC(=O)CSc1nc2c(c(=O)n1-c1ccccc1)C1(CCCCC1)Cc1ccccc1-2	-7	96	-0.1	64
23	C=CC(c1ccccc1)C(C(=O)c1ccccc1)N(C)C (centres undefined)	-47	97	x	107
24	CC(C)C(C(=O)NCc1ccco1)N(CC1CCCO1)C(=O)CNS(=O)(=O)c1ccccc1 (centres undefined)	-60	72	x	97
25	COC(=O)Cc1c(C)c2cc(Cl)c(OC(=O)c3ccco3)cc2oc1=O	24	86	13*	96
26	COc1ccc(-c2noc(CN(C(=O)c3cccs3)C(C)C)n2)cc1	-8	132	-1.4	101
27	O=C(c1ccc(Cl)cc1)C1CCCN(Cc2cnn(-c3ccccc3)c2)C1 (centres undefined)	x	x	x	103
28	O=c1cc(-c2ccc(F)cc2)[nH][nH]1	-15	116	-0.5	97
29	O=C(Nc1nc(-c2cccs2)cs1)c1ccco1	27	79	x	105
30	CC(O)c1nc2c(c(=O)n(C)c(=O)n2C)n1C (centres undefined)	x	x	x	112

item	HSV augment	HSV augment primary fold	PKD1 inh
16	i	0.96	-5
17	i	0.85	-2
18	i	0.98	-11
19	i	1.2	x
20	i	0.78	-3
21	i	1	-8
22	i	0.95	-1
23	i	1.1	1
24	i	0.94	-5
25	i	0.97	-6
26	i	0.92	-4
27	i	0.93	-8
28	i	0.96	10
29	i	0.81	-5
30	i	1.1	x

5 of the compounds above, as tab-separated lines.
entry	compound	Insulin prom inh	Insulin prom inh cell count	GALR2 ag	RGS16-Gao	HSV augment	HSV augment primary fold	PKD1 inh
16	Cc1cccc(-c2n[nH]c(=S)n2Cc2ccccc2)c1	-67	167	0.8	11	i	0.96	-5
17	CC(=O)c1ccc(NC(=O)CCC(=O)OCC(F)(F)C(F)F)cc1	x	x	0.4	108	i	0.85	-2
18	COc1ccc(CCNC(=O)CN(CCc2ccccc2)S(C)(=O)=O)cc1OC	-22	128	x	103	i	0.98	-11
19	CC(=O)N=c1c(C#N)cc2c(=O)n3ccccc3nc2n1CCCOC(C)C	x	x	x	103	i	1.2	x
20	O=c1[nH]c(-c2cccnc2)nc2sc(-c3ccccc3)cc12	x	x	x	93	i	0.78	-3

Next part:
item	molecule	Insulin prom inh	Insulin prom inh cell count	GALR2 ag	RGS16-Gao
31	O=C(c1ccccc1Sc1ccc([N+](=O)[O-])cc1)N1CCCCC1	7	130	-0.2	141
32	Cc1ccc(-c2cc(C(=O)Nc3sc4c(c3C(=O)NCc3ccco3)CCC4)[nH]n2)c(O)c1	15	107	-0.2	89
33	CC(c1ccco1)N(C(=O)c1ccccc1NS(=O)(=O)c1cccc([N+](=O)[O-])c1)c1ccccn1 (centres undefined)	-7	148	0.0	100
34	C#CCOCCOCCOCCNc1nc(N2CCN(C(=O)[C@H]([C@@H](C)CC)n3cc([C@@H](N)CC(C)C)nn3)CC2)nc(N2CCN(C(=O)[C@H](Cc3cc4ccccc4[nH]3)n3cc([C@@H](N)C(C)CC)nn3)CC2)n1 (some centres undefined)	x	x	x	100
35	S=C(NCc1cccnc1)Nc1ccc(Cl)cc1	38	39	-1.9	101
36	C=C(C)CNC(=S)Nc1sc2c(c1C(=O)OCC)CC(C)(C)OC2	x	x	0.0	101
37	CC(C)(Oc1ccc(Cl)cc1)C(=O)NCCCn1ccnc1	0	187	-1.2	99
38	Cc1cc(NO)nc(-c2ccc(Br)cc2)n1	x	x	-1.8	102
39	CC1CC(C)CN(CC(=O)c2cccs2)C1 (centres undefined)	0	95	x	98
40	O=C1CNC(=O)/C(=C/c2ccco2)N1	-36	106	x	94
41	CC(CCc1ccccc1)NC(=O)c1ccc(NC(=O)c2cccc(Br)c2)cc1 (centres undefined)	10	104	-1.6	101
42	C=CCNC(=O)c1cccc(Br)c1	17	90	0.1	103
43	CC1CC(C)(C)N(C(=O)CN2C(=O)c3ccccc3C2=O)c2ccccc21 (centres undefined)	27	94	-0.9	65
44	O=C(CSc1nnc(-c2ccccc2)c(-c2ccccc2)n1)N1CCc2ccccc21	11	133	-1.4	105
45	N=c1ccn(Cc2ccc(Cl)cc2Cl)cc1	-8	87	-1.9	103

item	HSV augment	HSV augment primary fold	PKD1 inh
31	i	1.1	-1
32	i	1.2	-8
33	i	0.92	4
34	i	0.83	x
35	x	x	0
36	i	1	0
37	i	1.1	-6
38	i	1.1	0
39	i	1.2	8
40	i	1.2	-14
41	i	0.75	-2
42	i	1.1	4
43	i	0.88	-2
44	i	0.91	-10
45	i	0.84	-3

Other entries follow:
item	molecule	Insulin prom inh	Insulin prom inh cell count	GALR2 ag	RGS16-Gao
46	O=C(COc1ccc(S(=O)(=O)N2CCCC2)cc1Cl)Nc1ccc2c(c1)OCO2	-41	47	-1.2	90
47	Cc1nc(-c2ccc(S(=O)(=O)NCc3cccnc3)s2)cs1	x	x	x	103
48	O=C(CC1CCCCC1)N1CCC(c2nc(-c3ccc(S(=O)(=O)N4CCCC4)cc3)no2)CC1	10	121	-3.6	100
49	O=C(N/N=C/C=C/c1ccco1)c1cnccn1	x	x	x	102
50	COc1ccc(C)c(-n2c(=O)n(Cc3ccccc3)c(=O)c3[nH]cnc32)c1	x	x	x	70
51	O=C(C[n+]1ccc2ccccc2c1)Nc1cc(C(F)(F)F)ccc1Cl	x	x	-0.5	134
52	Cc1nc2cc(NC(=O)Nc3cccc4ccccc34)ccc2n1C	x	x	x	93
53	NS(=O)(=O)c1cccc(NC(=O)Cn2cnc3ccccc3c2=O)c1	-42	111	-0.2	99
54	CC(C)=CC(=O)Nc1ccc(S(=O)(=O)Nc2ccccn2)cc1	-18	140	x	97
55	CC(C)CNC(=O)COC(=O)CCC(=O)c1ccc(Cl)cc1	43	92	x	81
56	COc1cc(Cl)c(S(=O)(=O)N2CCN(Cc3ccc4c(c3)OCO4)CC2)cc1Cl	x	x	-0.9	104
57	O=C(OCC#CCSc1nnc(-c2ccccc2)o1)c1cc2ccccc2o1	6	103	-2.4	104
58	Cc1sc(C(=O)Nc2ccc3ccccc3c2)cc1CC(=O)O	11	84	x	102
59	Cc1ccc(C)c(NC(=S)NCC(c2cccnc2)N2CCOCC2)c1 (centres undefined)	x	x	-0.3	101
60	Cc1ccccc1NC(=O)CC1S/C(=N/c2nccs2)N(C)C1=O (centres undefined)	-18	157	-1.3	112

item	HSV augment	HSV augment primary fold	PKD1 inh
46	i	0.77	-8
47	i	1	x
48	i	1.1	8
49	i	0.87	x
50	i	1.2	x
51	i	1	3
52	i	0.79	-8
53	i	0.66	-7
54	i	0.91	-2
55	i	0.96	-6
56	i	1	-11
57	i	1	-3
58	i	0.99	-9
59	i	0.96	-1
60	i	0.94	3

Later entries
item	molecule	Insulin prom inh	Insulin prom inh cell count	GALR2 ag	RGS16-Gao
61	CN1CCN(CCC(=O)Nc2ccc(C3CCCC3)cc2)CC1	x	x	x	100
62	Cc1cccc(NC(=O)Cn2cnc3ccccc3c2=O)c1C	x	x	0.3	94
63	CCOc1nc(-c2ccc(OC)cc2)ccc1-c1noc(-c2cc(OC)c(OC)c(OC)c2)n1	x	x	-0.2	99
64	COc1ccc(Nc2nc(Cl)nc(NCCO)n2)cc1	x	x	0.2	169
65	OCCn1c(CSc2nnc(-c3ccco3)n2-c2ccccc2)nc2ccc(Cl)cc21	-11	65	-0.3	97
66	Cc1ccc(S(=O)(=O)Nc2ccccc2CNC2CCCCC2)cc1	x	x	x	102
67	Cc1cc(S(=O)(=O)NCCN(C)C)c(C)s1	12	128	-2.5	102
68	Cc1ccc(-c2c[nH]c(=S)n2-c2ccccc2F)cc1	25	67	x	92
69	CCOC(=O)c1ccccc1NC(=O)/C(C)=C/C(=O)O	0	104	-1.9	102
70	CCOC(=O)c1c(OCC)[nH]c2c1cc(O)c1ccccc12	x	x	-1.1	98
71	COc1ccc(Cc2nnc(NC(=O)c3cccc([N+](=O)[O-])c3)s2)cc1	35	111	-1.6	105
72	S=C(NCCc1ccccn1)Nc1ccc(Cl)c(Cl)c1	9	144	0.3	110
73	O=C(O)c1ccc(N2CC3CC(C2)c2cccc(=O)n2C3)c(NC(=S)Nc2ccc(Cl)cc2Cl)c1 (centres undefined)	x	x	x	93
74	Cc1cc(C)c(C)c(S(=O)(=O)Nc2ccc(O)cc2)c1C	19	125	-2.4	108
75	O=C(COC(=O)c1cc(=O)[nH]c2ccccc12)c1cccs1	x	x	x	102

item	HSV augment	HSV augment primary fold	PKD1 inh
61	i	0.8	0
62	i	1	1
63	i	1.1	-1
64	i	0.95	2
65	i	1.1	-6
66	i	0.95	3
67	i	0.96	0
68	i	0.81	-5
69	i	0.81	0
70	i	0.88	-6
71	i	0.84	-13
72	i	1.1	5
73	i	0.94	0
74	i	0.98	-4
75	i	0.96	-2

New compounds follow.
item	molecule	Insulin prom inh	Insulin prom inh cell count	GALR2 ag	RGS16-Gao
76	COC(=O)c1cc(OC)c(OC)cc1NC(=O)c1ccccc1	x	x	-0.7	105
77	Cc1ccc(C(=O)N/C(=C\c2cccs2)C(=O)NCc2ccncc2)cc1	30	127	-1.0	101
78	O=C(c1ccccc1)N1CCN(C(=S)NCCc2ccccc2)CC1	18	104	1.9	105
79	Cc1ccc(-n2ncc(C(=O)Nc3cc(Cl)ccc3C)c2C2CCNCC2)cc1C	7	144	x	107
80	CCCSc1nnc2n(C)c(=O)c3c4c(sc3n12)CCC4	x	x	1.7	-16
81	COc1cc(/C(C#N)=C/c2cccc3ccccc23)c([N+](=O)[O-])cc1OC	6	102	-1.3	108

item	HSV augment	HSV augment primary fold	PKD1 inh
76	i	0.78	1
77	i	1.1	-5
78	i	0.93	-3
79	i	0.58	1
80	i	1.1	2
81	i	0.81	-1
